# Tg IFNy HTS: T. gondii growth inhibition under IFN-gamma; Toxoplasma gondii growth in IFN-gamma-treated host cells; stronger effect = lower value; reference of the scale not given here; activity change, negative = inhibition, %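 (about 20 µM by stock and volumes)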; 69,000 tested, 3.8% active; AID 1259416;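 active means below -70%; inconclusive means fit judged invalid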;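 further: host cells are HeLa cells infected with Toxoplasma gondii; parasite growth read as luciferase light; one replicate is shown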
# Numbers without * were called inactive; u = inconclusive. Only part of the results is shown, so the mix of outcomes need not match the whole.
1) O=C(C[C@H]1CC[C@@H]2[C@H](COC[C@@H](O)CN2C(=O)Cc2ccccc2)O1)NC1Cc2ccccc2C1
  Tg IFNy HTS = 15

2) O=C(c1ccco1)N1CC[C@@H]2[C@@H](CO[C@@H]2CNc2ncccn2)C1
  Tg IFNy HTS = -65

3) Cc1ccc(C)c(NC(=O)CN2C(=O)CCc3cc(Br)ccc32)c1
  Tg IFNy HTS = 63

4) Cc1noc(C)c1NC(=O)N1C[C@H](O)COC[C@@H]2O[C@@H](CC(=O)NCC3CC3)CC[C@H]21
  Tg IFNy HTS = 23

5) CSc1ccc(CN(C(=O)CC2CCOCC2)C2CC2)cc1
  Tg IFNy HTS = -2

6) O=C(NCc1ccccc1F)c1nc(Nc2ccc(F)cc2)c2ccccc2n1
  Tg IFNy HTS = -43

7) O=C(/C=C/c1ccc(O)c(O)c1)O[C@H](Cc1ccc(O)c(O)c1)C(=O)O
  Tg IFNy HTS = 6

8) CO[C@@H]1CN(C)C(=O)c2cc(NC(=O)c3cccc(F)c3)ccc2OC[C@H](C)N(C)C[C@@H]1C
  Tg IFNy HTS = -69

9) Cc1ccc2c(c1)C1OCCC1C1N2C(=O)C2C(C(=O)O)C3C=CC21O3 (stereo not drawn)
  Tg IFNy HTS = 19

10) CCOC(=O)N1CCC(NCCOc2ccccc2F)CC1
  Tg IFNy HTS = -1

11) CN(CCCc1cnn(C)c1)C(=O)c1cccnc1
  Tg IFNy HTS = 19

12) CN(C)CCNC(=O)c1cc(-c2ccn(-c3ccccc3)n2)n2ccccc12
  Tg IFNy HTS = -106*

13) CCOC(=O)c1cc(-c2csc(-c3ccc(C(F)(F)F)cc3)n2)on1
  Tg IFNy HTS = 45

14) CCN1CCN(C(=S)c2ccc(OC)cc2)CC1
  Tg IFNy HTS = -19

15) C[C@H]1CN([C@@H](C)CO)C(=O)c2c(c3ccccc3n2C)-c2ccccc2CO[C@@H]1CN(C)Cc1cccc(C(F)(F)F)c1
  Tg IFNy HTS = -31

16) COc1cccc(C(=O)Nc2ccc3c(c2)C(=O)N(C)[C@@H]2CC[C@H](CC(=O)N[C@@H](C)c4ccccc4)O[C@@H]2CO3)c1
  Tg IFNy HTS = -47

17) C=CCN1C(=O)CCCC12CCCN(C(=O)c1ccc3ncccc3c1)C2 (stereo not drawn)
  Tg IFNy HTS = 15

18) CN(Cc1nc2c(s1)CCCC2)C(=O)CC1C(=O)N(C)C(=O)N1C (stereo not drawn)
  Tg IFNy HTS = -4

19) COc1ccc2c3c([nH]c2c1)[C@@H](CO)N(C(=O)Nc1ccc(F)cc1)CC31CCN(C(=O)Cc2ccncc2)CC1
  Tg IFNy HTS = 10

20) Cc1cc(C(=O)N2CCCC3(C2)Nc2cccnc2NC3=NCc2ccccc2)nn1C (stereo not drawn)
  Tg IFNy HTS = 61

21) Cc1ccccc1CN1CCC(CNC(=O)CC2=CCNCC2)C1 (stereo not drawn)
  Tg IFNy HTS = -3

22) Cn1nc(CN2CCCC2)c2c1CN(C(=O)c1cccnc1)CC2
  Tg IFNy HTS = 3

23) CC(O)c1ccc(-c2ccc(C(N)=O)cc2)cc1 (stereo not drawn)
  Tg IFNy HTS = 37

24) CCCN(C)C[C@H]1OCCCC[C@@H](C)Oc2ccc(NC(=O)CCCN(C)C)cc2C(=O)N([C@H](C)CO)C[C@@H]1C
  Tg IFNy HTS = 65

25) O=C(NCc1noc(-c2ccccc2)n1)C1OCOc2ccccc21 (stereo not drawn)
  Tg IFNy HTS = -9

# Part of the list above, tab-delimited.
No.	Compound	Tg IFNy HTS
1	O=C(C[C@H]1CC[C@@H]2[C@H](COC[C@@H](O)CN2C(=O)Cc2ccccc2)O1)NC1Cc2ccccc2C1	15
2	O=C(c1ccco1)N1CC[C@@H]2[C@@H](CO[C@@H]2CNc2ncccn2)C1	-65
3	Cc1ccc(C)c(NC(=O)CN2C(=O)CCc3cc(Br)ccc32)c1	63
4	Cc1noc(C)c1NC(=O)N1C[C@H](O)COC[C@@H]2O[C@@H](CC(=O)NCC3CC3)CC[C@H]21	23
5	CSc1ccc(CN(C(=O)CC2CCOCC2)C2CC2)cc1	-2
6	O=C(NCc1ccccc1F)c1nc(Nc2ccc(F)cc2)c2ccccc2n1	-43
7	O=C(/C=C/c1ccc(O)c(O)c1)O[C@H](Cc1ccc(O)c(O)c1)C(=O)O	6
8	CO[C@@H]1CN(C)C(=O)c2cc(NC(=O)c3cccc(F)c3)ccc2OC[C@H](C)N(C)C[C@@H]1C	-69
9	Cc1ccc2c(c1)C1OCCC1C1N2C(=O)C2C(C(=O)O)C3C=CC21O3 (stereo not drawn)	19
10	CCOC(=O)N1CCC(NCCOc2ccccc2F)CC1	-1
11	CN(CCCc1cnn(C)c1)C(=O)c1cccnc1	19
12	CN(C)CCNC(=O)c1cc(-c2ccn(-c3ccccc3)n2)n2ccccc12	-106*
13	CCOC(=O)c1cc(-c2csc(-c3ccc(C(F)(F)F)cc3)n2)on1	45
14	CCN1CCN(C(=S)c2ccc(OC)cc2)CC1	-19
15	C[C@H]1CN([C@@H](C)CO)C(=O)c2c(c3ccccc3n2C)-c2ccccc2CO[C@@H]1CN(C)Cc1cccc(C(F)(F)F)c1	-31
16	COc1cccc(C(=O)Nc2ccc3c(c2)C(=O)N(C)[C@@H]2CC[C@H](CC(=O)N[C@@H](C)c4ccccc4)O[C@@H]2CO3)c1	-47
17	C=CCN1C(=O)CCCC12CCCN(C(=O)c1ccc3ncccc3c1)C2 (stereo not drawn)	15
18	CN(Cc1nc2c(s1)CCCC2)C(=O)CC1C(=O)N(C)C(=O)N1C (stereo not drawn)	-4
19	COc1ccc2c3c([nH]c2c1)[C@@H](CO)N(C(=O)Nc1ccc(F)cc1)CC31CCN(C(=O)Cc2ccncc2)CC1	10
20	Cc1cc(C(=O)N2CCCC3(C2)Nc2cccnc2NC3=NCc2ccccc2)nn1C (stereo not drawn)	61
21	Cc1ccccc1CN1CCC(CNC(=O)CC2=CCNCC2)C1 (stereo not drawn)	-3
22	Cn1nc(CN2CCCC2)c2c1CN(C(=O)c1cccnc1)CC2	3
23	CC(O)c1ccc(-c2ccc(C(N)=O)cc2)cc1 (stereo not drawn)	37

# (cont.)
26) CSCc1noc(-c2cn(CCc3ccccc3)nn2)n1
  Tg IFNy HTS = -12

27) NC(=O)c1ccc(-n2cnnc2)cc1N1CCCC1
  Tg IFNy HTS = 7

28) CC(=O)Nc1ccc(Cl)c(C(=O)NCCSc2ncn[nH]2)c1
  Tg IFNy HTS = 6

29) O=C(c1ccccc1-c1ncn[nH]1)N1CCC(CO)(Cc2ccccc2)CC1
  Tg IFNy HTS = 13

30) c1ccc2[nH]c(CC3CCCN(Cc4cc5n(n4)CCNC5)C3)nc2c1 (stereo not drawn)
  Tg IFNy HTS = -16

31) CCc1cnc(-c2c[nH]c3ccc(C)cc23)nc1
  Tg IFNy HTS = -11

32) O=S(=O)(c1cccc(Cl)c1)N1CCc2nc(-c3ccccc3)sc2C1
  Tg IFNy HTS = 1

33) Cc1nn2c(Cl)c3c(nc2c1-c1ccc(F)cc1)CCCC3
  Tg IFNy HTS = 59

34) Cc1cccc(NC(=O)N2CCC3(CC(=O)N(c4cccc(F)c4)C3)C2)c1 (stereo not drawn)
  Tg IFNy HTS = 1

35) CC(C)(C)c1cc(CN2CCC(CNS(C)(=O)=O)C2)[nH]n1 (stereo not drawn)
  Tg IFNy HTS = 2

36) COc1ccc([C@@H]2C[C@H](C(=O)Nc3cccc(O)c3)N(C)S(=O)(=O)N2)cc1OC
  Tg IFNy HTS = 22

37) c1ccc(C[C@H]2COC(C3=N[C@H](Cc4ccccc4)CO3)=N2)cc1
  Tg IFNy HTS = -16

38) CN(CCCc1cnn(C)c1)C(=O)c1ccc(-c2ccn[nH]2)cc1
  Tg IFNy HTS = 0

39) Cc1nccn1CC1CCCN(Cc2ccc(Cn3cccn3)cc2)C1 (stereo not drawn)
  Tg IFNy HTS = -9

40) CCCCOc1ccccc1C(=O)N1CCOC(C(F)(F)F)C1 (stereo not drawn)
  Tg IFNy HTS = -7

41) CC[C@H](CO)NCCN[C@H](CC)CO
  Tg IFNy HTS = 1

42) C=CCOCC1CN(C(=O)c2ccncc2F)Cc2ccnn2C1 (stereo not drawn)
  Tg IFNy HTS = 8

43) Cc1ccc(C)c(NC(=O)Cn2ncc3c(N4CCCCCC4)ncnc32)c1
  Tg IFNy HTS = 63

44) Cc1occc1C(=O)N(C)Cc1csc(C(C)C)n1
  Tg IFNy HTS = 1

45) C[C@@H]1CCCCO[C@@H](CN(C)C(=O)Nc2ccccc2)[C@H](C)CN([C@@H](C)CO)C(=O)c2cc(NC(=O)Nc3ccccc3)ccc2O1
  Tg IFNy HTS = 136

46) COC(=O)c1ccc(CN2CCC3(CC2)C(=O)N(CCc2ccccc2)C(=O)N3C)cc1
  Tg IFNy HTS = 4

47) CCN1CCO[C@@H]2CN(C(=O)CC3Cc4ccccc4C3)C[C@@H]2C1
  Tg IFNy HTS = -41

48) C=CCn1c2c(ccc1=O)CCN(C(=O)C1CCOC1)CC2 (stereo not drawn)
  Tg IFNy HTS = -3

49) CO[C@H]1CN(C)C(=O)c2cc(NC(=O)c3cccc(F)c3)ccc2OC[C@H](C)N(C)C[C@@H]1C
  Tg IFNy HTS = 87

50) C/C=C/c1ccc([C@H]2[C@@H](CO)N[C@@H]2CN(Cc2cccnc2)C(=O)C2CC2)cc1
  Tg IFNy HTS = -2

51) CCCC(=O)N1CC2(C1)CN(Cc1ccccc1F)[C@@H](CO)c1c2c2ccc(OC)cc2n1C
  Tg IFNy HTS = -20

52) Cc1ccc(C)c(NC(=O)Cn2c(=O)cc(-c3nc(C)no3)c3ccccc32)c1
  Tg IFNy HTS = 57

53) CNC(=O)[C@H]1CC2CN(C(=O)c3cnccn3)CC2N1C(C)C (stereo partly drawn)
  Tg IFNy HTS = -1

54) CCSc1nc(CC(=O)NC(CC)c2cnn(C)c2)cs1 (stereo not drawn)
  Tg IFNy HTS = 6

55) CN(CC1CCCCO1)C(=O)c1ccc2cccnc2n1 (stereo not drawn)
  Tg IFNy HTS = 17

56) COc1ccc(-c2nc(N3CCN(c4ccc(OC)cc4)CC3)c3ccccc3n2)cc1
  Tg IFNy HTS = 103

57) O=C(Nc1cccc(Cl)c1N1CCOCC1)c1ccc(Cn2cnnn2)cc1
  Tg IFNy HTS = -4

58) COCc1cncc2c1CCN(C(=O)c1ccc3[nH]ccc3c1)C2
  Tg IFNy HTS = -8

59) O=C(c1cccc(Cl)c1)N1CCc2c([nH]c3ccccc23)C1c1cccnc1 (stereo not drawn)
  Tg IFNy HTS = -82*

60) CC(C)c1cc(C(=O)NCc2cc(-c3ccco3)on2)n(C)n1
  Tg IFNy HTS = 3

61) O=c1[nH]c2cc3c(cc2cc1CN(C(=S)Nc1ccccc1)C1CCCCC1)OCO3
  Tg IFNy HTS = 36

62) Cc1ccccc1-c1nc(Cn2c(=O)cc(C(=O)N3CCCCC3)c3ccccc32)c(C)o1
  Tg IFNy HTS = 4

63) C[C@@H]1CN([C@@H](C)CO)C(=O)c2ccccc2-c2ccccc2CO[C@@H]1CN(C)C(=O)Nc1ccc(-c2ccccc2)cc1
  Tg IFNy HTS = -60

64) Cc1nnc(-c2ccc3ccn(CC(=O)Nc4cccnc4)c3c2)o1
  Tg IFNy HTS = 59

65) C[C@@H]1CN([C@@H](C)CO)C(=O)CCCn2nncc2CO[C@@H]1CN(C)C(=O)c1ccc(N2CCN(C)CC2)cc1
  Tg IFNy HTS = 69

66) CCOC[C@@H]1CCC[C@]12CN(Cc1cccs1)CCO2
  Tg IFNy HTS = -10

67) CCn1nc(C)c(C(=O)N2CCCC3(CC2)CNC(=O)O3)c1C (stereo not drawn)
  Tg IFNy HTS = 59

68) C[C@H]1CN([C@@H](C)CO)C(=O)c2ccccc2-c2ccccc2CO[C@H]1CN(C)C(=O)[C@@H]1CCCN1C
  Tg IFNy HTS = -12

69) CCCCCCCCN=c1ccn(CCCCCCCCCCn2ccc(=NCCCCCCCC)cc2)cc1
  Tg IFNy HTS = u

70) CN(CCc1cn[nH]c1)C(=O)c1coc(COc2cccc(F)c2F)n1
  Tg IFNy HTS = 5

71) O=C(NCCCOc1cccnc1)[C@H]1Cc2ccccc2CN1
  Tg IFNy HTS = 4

72) Cc1noc(-c2cc(=O)n(CC(=O)Nc3ccc4c(c3)OCCO4)c3ccccc23)n1
  Tg IFNy HTS = 80

73) COc1ccc(-c2nc(C)c(CCNC(=O)C(=O)Nc3ccc(C)cc3)s2)cc1OC
  Tg IFNy HTS = 76

# High-throughput results: PubChem, Broad Institute
